Screens deposited in PubChem by Center for Chemical Genomics, University of Michigan.
HIV TAR-Tat = HIV-1 TAR-Tat binding disruption | AID 1259389 | 100,000 compounds, 0.6% hits | HIV-1 TAR RNA, Tat peptide displacement FRET; stronger effect = higher value | z-score (concentration not given with the values);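 also: score is relative to mean and SD of negative controls; some compounds called inactive have numbers as strong as hits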
CDC25B CDK2 inh = human CDC25B-CDK2/CyclinA binding inhibition. P30305+P24941. 94,000 compounds, 0.72% hits. z-score (no concentration beside the values). HTRF CDC25B-CDK2/CyclinA binding, anti-His/anti-Flag; stronger effect = higher value;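 also: score is relative to mean and SD of negative controls; strong numbers were not always called active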
The depositor's hits bear a star; . = not tested or not shown.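 The calls were made as follows: active = z-score from 3 up in half or more of its runs; inactive = the rest.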

SMILES	HIV TAR-Tat	CDC25B CDK2 inh
O=S(=O)(c1ccc(C2CCCCC2)cc1)N1CCn2c(nc3ccccc32)C1	-0.45	-0.93
COCCCNS(=O)(=O)c1cc2c3c(c1)CC(=O)N3CCC2	1.8	.
O=C(NCc1cccs1)c1ccc(Cn2nc(N3CCN(c4ccccc4)CC3)ccc2=O)o1	1.6	.
CCOC(=O)c1c(/N=C/C2=C(O)CC(c3cccs3)CC2=O)sc(C)c1C (centres undefined)	.	-1.9
O=C1c2cccc([N+](=O)[O-])c2C(=O)N1c1ccc(OC(F)(F)F)cc1	.	-2.6
CCOCCn1c(=O)c2c(nc3n2CCN3c2cc(C)cc(C)c2)n(C)c1=O	.	-0.76
O=C(c1ccc(CN2C(=O)CCn3nccc32)cc1)N1CCC(N2CCCCC2)CC1	1	.
N#CCSc1nnc(-n2cccc2)s1	.	-1.8
O=C1NC(=S)S/C1=C\c1cccs1	.	-0.04
O=C(CN1C(=O)CCSc2ccccc21)Nc1ccc(Br)cc1	.	-2.8
Clc1cccc(-c2nc3ncccn3c2NCc2ccccc2)c1	0.4	.
O=C(CS(=O)(=O)c1ccc(Cl)cc1)Nc1nc(-c2ccc3c(c2)OCCO3)cs1	-0.6	.
CCCNc1ncnc2sc(CC)cc12	1.3	.
O=C(CCS(=O)(=O)c1cccc2nsnc12)N1CCN(c2ccccc2)CC1	-0.83	-0.09
CC1=C(C(=O)OC(C)C)C(c2cccc3ccccc23)C2=C(CC(C)(C)CC2=O)N1 (centres undefined)	0.41	-2
CC1CCN(c2nc(N3CCCC3)nc(N)c2[N+](=O)[O-])CC1	0.85	.
COc1cc(NS(=O)(=O)c2c(C)oc3c(F)c(F)c(F)c(F)c23)cc(OC)c1OC	.	-0.92
Cc1nn(C(=O)c2cccs2)c(C)c1Sc1ccc(Cl)cc1	.	-0.3
COC(=O)c1c2c(nn1C)-c1ccccc1CC2	-0.63	-2
CC(=O)Nc1cc2nc3[nH]c(=O)[nH]c(=O)c3nc2cc1C	-6.2	0.65
Cc1oc2ccc(NS(=O)(=O)c3cccc([N+](=O)[O-])c3)cc2c1C(=O)OC(C)C	.	0.44
Cc1ccc2nc3sc(C(=O)Nc4cc(C)on4)cc3cc2c1	-0.37	.
CCc1nnc(NC(=O)CSc2nnc(Cc3c(C)nc4c(C)cccn4c3=O)n2C)s1	-0.1	-0.81
CCN(CC)c1ccc(NC(=O)CSc2nnc(C)c(=O)[nH]2)cc1	-0.2	-5.1
CCc1nn(C(C)C(=O)N2CC(C)CC(C)C2)c(=O)c2cc3occc3n12 (centres undefined)	1	-0.25
CCc1ccc2[nH]c(CSc3nnc(COc4ccccc4CC)n3C)cc(=O)c2c1	-0.48	.
O=C(c1cnn(-c2cccc(F)c2)c1C1CCNCC1)N1CCN(c2ccccn2)CC1	0.72	.
Cc1ccc(NC(=O)N2CCn3c(C)ccc3C2C(C)C)cc1C (centres undefined)	0.69	.
CCCN(CCC)CCCn1cnc2c([nH]c3ccc(Cl)cc32)c1=O	1.8	1.2
COc1cc(OC)c(NC(=O)N2CCOCC2)cc1Cl	-2.2	-0.52
Cc1cccc(NC(=O)C2C3C=CC4(O3)C2C(=O)N(C2CC2)C4C(=O)NC2CCCC(C)C2C)c1 (centres undefined)	.	0.35
COc1ccc(C(Nc2cc(C)ccn2)c2ccc3ccc(C)nc3c2O)cc1 (centres undefined)	2.2	1.1
CCOC(=O)c1c(N2C(=O)C3CC(C)=C(C)CC3C2=O)sc(C)c1C (centres undefined)	.	-1.6
O=C(Nc1cccc(F)c1)c1sc(=S)n2c1[nH]c(=O)c1ccccc12	2.4	.
O=C(Nc1ccc2c(c1)OCCO2)c1c[nH]c(=O)n(-c2ccccc2)c1=O	3.2	.
O=C(O)CN1C(=O)c2ccccc2C1=O	.	-1.7
O=C(Nc1ccc(Cl)cc1)N1CCCC(Cn2cccc2)C1 (centres undefined)	.	-0.81
COc1ccc2nc(NS(=O)(=O)c3ccc4c(c3)NC(=O)CC(C)S4)sc2c1 (centres undefined)	1.4	.
CCCc1nn2c(=O)cc(CSc3nc(C)cc(=O)[nH]3)nc2s1	0.37	0.9
Cc1cccc(NC(c2ccccc2)c2ccc3ccc(C)nc3c2O)n1 (centres undefined)	0.41	-1.3
CCc1cc2c(cc3c(=O)n(CC(=O)NC4CCCCC4C)nc(CC)n32)s1 (centres undefined)	1.6	-2.8
Cc1nc(NCCCN(C)C)c2sc3nc4c(cc3c2n1)COC(C)(C)C4	.	0.31
FC(F)(F)c1cc(-c2cccs2)n2ncnc2n1	.	-0.86
c1ccc2c(c1)CCN2c1nc2ccccc2n2nnnc12	0.39	0.11
CSc1ccc(-c2nnc(NC(=O)c3ccc4c(c3)OCCO4)o2)cc1	0.76	.
CC1CC(C)CN(C(=O)C2CCCN(S(=O)(=O)c3ccc4c(c3)oc(=O)n4C)C2)C1 (centres undefined)	-0.95	-0.59
CC1CCN(C(=O)C2CCN(S(=O)(=O)c3ccc4c(c3)NC(=O)C(C)S4)CC2)CC1 (centres undefined)	1.7	.
COc1ccc(Oc2c(C(F)(F)F)oc3cc(OCC(=O)OC(C)C)ccc3c2=O)cc1	1.9	-0.47
COc1ccccc1N1CCN(C(c2cccs2)C(C)NS(=O)(=O)c2ccc(F)cc2)CC1 (centres undefined)	.	0.29
CNC(=O)CCCc1nnc2n(CC(C)C)c(=O)c3sccc3n12	1.2	.
Cc1cc(C)n(C(=O)CN2C(=O)C3CCCCC3C2=O)n1 (centres undefined)	0.84	-0.39
CCCCn1cc(C2CC(=O)N(c3cccc(O)c3)C2=O)c2ccccc21 (centres undefined)	1.4	-1.6
Clc1cccc2nc3n(c12)CCN(Cc1ccccc1)C3	0.76	-2.3
Cc1ccc([N+](=O)[O-])cc1S(=O)(=O)N(C)C	.	-1.6
CCSc1ccc2nnc(-c3ccc(F)cc3)n2n1	.	-2.1
CCOC(=O)c1c(NC(=O)CC)sc2c1CC(C)(C)OC2	1.8	-1.2
CCC(C)NC(=O)Cn1cc(C(=O)c2ccc(Br)cc2)c(=O)c2ccc(C)nc21 (centres undefined)	0.4	-2.3
O=C(Nc1ccc(F)c(Cl)c1)c1nsc(Cl)c1Cl	.	-1.8
Cc1ccc(-c2nn3c(C)nnc3s2)cc1NC(=O)c1ccc([N+](=O)[O-])o1	0.46	-0.34
Cc1cc(C)n(Cc2c(C(=O)NC(C)C)noc2C)n1	1.6	.

Continued; it opens with the 2 that closed the last part.
SMILES	HIV TAR-Tat	CDC25B CDK2 inh
Cc1ccc(-c2nn3c(C)nnc3s2)cc1NC(=O)c1ccc([N+](=O)[O-])o1	0.46	-0.34
Cc1cc(C)n(Cc2c(C(=O)NC(C)C)noc2C)n1	1.6	.
O=C(NCc1cccs1)c1cnn(-c2ccc(F)cc2)c1-n1cccc1	0.95	.
COC(=O)c1ccc(C2C(C(=O)OC(C)C)=C(C)NC3=C2C(=O)CCC3)cc1 (centres undefined)	2.5	-1.1
CSc1cccc(NC(=O)Nc2c[nH]c(=O)[nH]c2=O)c1	0.46	-0.67
S=C(Nc1ccc(Cl)c(Cl)c1)N1CCCCCC1	.	-1.8
CCc1ccc(C2N=C(N)Nc3nc4ccccc4n32)cc1 (centres undefined)	2	-1.5
CC1CC(C)CN(CCCNC(=O)C2CCN(S(=O)(=O)c3cnc[nH]3)CC2)C1 (centres undefined)	-1.2	-1.4
Cc1ccc(S(=O)(=O)N2CCCN(S(=O)(=O)c3ccc(C)cc3C)CC2)c(C)c1	1.1	-2.3
COc1cc(C(=O)NNC(=O)CSCc2c(C)c(C)c(C)c(C)c2C)cc(OC)c1OC	.	-3.2
O=C(Nc1ccc(Cl)cn1)c1cnn(-c2ccccc2)c1-n1cccc1	-0.34	.
COc1ccc(-c2nnc3c4c(nnn4Cc4ccc(F)cc4)c(C)nn23)cc1	1	-0.57
O=C(c1ccc(CS(=O)c2ccc(Cl)cc2)o1)N1CCN(c2cccc(Cl)c2)CC1 (centres undefined)	0.88	0.07
CCCCCC#CC(=O)Nc1nc2cc(C)c(C)cc2[nH]1	.	-2.8
CNc1nc2c(c(=O)n(C)c(=O)n2C)n1CC(O)COc1ccc(OC)cc1 (centres undefined)	1.4	-0.9
COC(=O)c1ccccc1NC(=O)COC(=O)CSc1nc(C)cc(C)n1	.	-2.5
Cc1cc(Br)ccc1NC(=O)c1cnc2scc(C)n2c1=O	.	-0.69
CC(C)c1ccc(S(=O)(=O)Nc2cc3c(cc2N2CCOCC2)n(C)c(=O)n3C)cc1	0.88	.
O=C(Nc1cccc2nsnc12)C1CCN(S(=O)(=O)c2cccs2)CC1	0.08	.
O=C(CCS(=O)(=O)c1cccc2nonc12)Nc1ccc(F)cc1F	2.5	.
CCN1CCN(C(c2cccs2)C(C)NS(C)(=O)=O)CC1 (centres undefined)	.	-1.4
CC(NS(=O)(=O)c1ccccc1)C(c1cccs1)N1CCN(c2ccccc2)CC1 (centres undefined)	.	-1.1

Another view of part of the listing above.
Results follow in this order: HIV TAR-Tat | CDC25B CDK2 inh
O=C(NCc1cccs1)c1cnn(-c2ccc(F)cc2)c1-n1cccc1
→ 0.95 | .
COC(=O)c1ccc(C2C(C(=O)OC(C)C)=C(C)NC3=C2C(=O)CCC3)cc1 (centres undefined)
→ 2.5 | -1.1
CSc1cccc(NC(=O)Nc2c[nH]c(=O)[nH]c2=O)c1
→ 0.46 | -0.67
S=C(Nc1ccc(Cl)c(Cl)c1)N1CCCCCC1
→ . | -1.8
CCc1ccc(C2N=C(N)Nc3nc4ccccc4n32)cc1 (centres undefined)
→ 2 | -1.5
CC1CC(C)CN(CCCNC(=O)C2CCN(S(=O)(=O)c3cnc[nH]3)CC2)C1 (centres undefined)
→ -1.2 | -1.4
Cc1ccc(S(=O)(=O)N2CCCN(S(=O)(=O)c3ccc(C)cc3C)CC2)c(C)c1
→ 1.1 | -2.3
COc1cc(C(=O)NNC(=O)CSCc2c(C)c(C)c(C)c(C)c2C)cc(OC)c1OC
→ . | -3.2
O=C(Nc1ccc(Cl)cn1)c1cnn(-c2ccccc2)c1-n1cccc1
→ -0.34 | .
COc1ccc(-c2nnc3c4c(nnn4Cc4ccc(F)cc4)c(C)nn23)cc1
→ 1 | -0.57
O=C(c1ccc(CS(=O)c2ccc(Cl)cc2)o1)N1CCN(c2cccc(Cl)c2)CC1 (centres undefined)
→ 0.88 | 0.07
CCCCCC#CC(=O)Nc1nc2cc(C)c(C)cc2[nH]1
→ . | -2.8
CNc1nc2c(c(=O)n(C)c(=O)n2C)n1CC(O)COc1ccc(OC)cc1 (centres undefined)
→ 1.4 | -0.9
COC(=O)c1ccccc1NC(=O)COC(=O)CSc1nc(C)cc(C)n1
→ . | -2.5
Cc1cc(Br)ccc1NC(=O)c1cnc2scc(C)n2c1=O
→ . | -0.69
CC(C)c1ccc(S(=O)(=O)Nc2cc3c(cc2N2CCOCC2)n(C)c(=O)n3C)cc1
→ 0.88 | .

(further entries)
SMILES	HIV TAR-Tat	CDC25B CDK2 inh
CCOC(=O)N1CCC(Nc2c(NC3CCCc4ccccc43)c(=O)c2=O)CC1 (centres undefined)	0.79	0.62
COC(CNC(=O)C(=O)Nc1c(F)cccc1F)OC	.	-0.9
C=C(C(=O)O)C(CC(=O)O)C(=O)O (centres undefined)	.	-0.71
c1cc2c(cc1N1COc3cc4c(cc3C1)OCO4)OCCO2	.	-1.4
Cc1c(C(=O)C(=O)N2CCN(C)CC2)c2ccccc2n1C	.	-2.1
Cc1c(C(=O)N2CCC(C)CC2)c(S(=O)(=O)Nc2ccc(S(N)(=O)=O)cc2)c(C)n1C	0.34	.
CCc1cc2c(N3CCN(Cc4ccc5c(c4)OCO5)CC3)ncnc2s1	1.8	.
Cc1[nH]c(C(=O)NCCCN2CC(C)CC(C)C2)c(C)c1C(=O)NC1CCCCC1 (centres undefined)	1.2	-0.19
Cn1nnc2c(NCCn3ccc4ccccc43)ncnc21	2.1	.
O=C(CN1CCSc2ccccc21)NCc1ccc2c(c1)OCO2	0.35	.
CCOC(=O)N1CCC(Nc2ncnc3c2cnn3-c2ccc(Cl)cc2)CC1	0.56	.
CC(C)CCNC(=O)C(=O)Nc1c2c(nn1-c1ccc(F)cc1)CSC2	1	.
O=C(CSc1nnc(-c2ccc(F)cc2)o1)Oc1ccccc1	1.8	-1.2
Cc1ccc2ncnc(Nc3ccccc3Cl)c2c1	.	1.2
O=C(O)CCCCCN1C(=O)c2cccc3c(Br)ccc(c23)C1=O	2.3	-3.1
COc1ccc(C2=NN3C(C2)c2cc(Cl)ccc2OC3c2ccncc2)cc1 (centres undefined)	-0.22	-0.99
CCOC(=O)c1nc(C)nc(Sc2n[nH]c(-c3ccccc3)n2)c1C	.	-0.3
Cc1[nH]n(-c2ccccc2)c(=S)c1/C=N/c1nc(-c2ccccc2)cs1	0.59	-1.9
COc1cc(C(c2sc3nc(C)nn3c2O)N2CCN(c3ccccc3)CC2)cc(OC)c1OC (centres undefined)	.	-1.1
Cc1sc2nc3c(C(=O)N4CCN(c5ncccn5)CC4)cccn3c(=O)c2c1C	.	0.29
OCc1noc(-c2cccs2)n1	.	-1.4
CCCCCc1ccc(CC(=O)O)cc1	2.9	-0.73
CSc1cccc(NC(=O)Nc2nc3c(s2)CCCC3)c1	0.53	.
Cc1ccc2nc(COc3cccc(NS(=O)(=O)c4ccccc4)c3)cc(=O)n2c1	0.56	.
Clc1ccccc1Nc1ncnc2c1nc1n2CCCC1	1.3	.
O=c1nc(SCc2ccccc2F)c2c(n1C1CCCC1)CCC2	0.2	-0.44
CC1=C(c2cccc(Br)c2)S(=O)(=O)N=C1Nc1ccccc1C	-0.3	-2.3
O=NN(CCCl)C(=O)NCCCl	1.2	-1.7
Cn1c(C(=O)N(Cc2ccccc2)c2ccccc2)cc2c(=O)n3ccccc3nc21	1.6	.
CCCOc1ccc(N2C(=O)CC(N3CCOCC3)C2=O)cc1 (centres undefined)	0.24	-1.6
COc1ccc2[nH]cc(CCNC(N)=O)c2c1	1.1	-0.37
CN1/C(=C/C=C/c2ccc3ccccc3[n+]2C)C=Cc2ccccc21	.	0.99
